Bioassay records from PubChem.
VDR inh = vitamin D3 receptor (human) inhibition; Potency, µM, inactives show max response, negative = inhibition, actives largely listed as inhibitors; 0.93% of 400,000 active; AID 504847; P11473; VDR-SRC2-3 peptide fluorescence polarization, 2 h; active = well fitted inhibition curve with a large enough effect; inconclusive = small, poorly fitted or top-dose-only effect, or another doubt; inactive = no such curve, though single readings can be large or run the other way; also: series mostly up to about 120 µM
Target sequence (P11473 whole entry, looked up): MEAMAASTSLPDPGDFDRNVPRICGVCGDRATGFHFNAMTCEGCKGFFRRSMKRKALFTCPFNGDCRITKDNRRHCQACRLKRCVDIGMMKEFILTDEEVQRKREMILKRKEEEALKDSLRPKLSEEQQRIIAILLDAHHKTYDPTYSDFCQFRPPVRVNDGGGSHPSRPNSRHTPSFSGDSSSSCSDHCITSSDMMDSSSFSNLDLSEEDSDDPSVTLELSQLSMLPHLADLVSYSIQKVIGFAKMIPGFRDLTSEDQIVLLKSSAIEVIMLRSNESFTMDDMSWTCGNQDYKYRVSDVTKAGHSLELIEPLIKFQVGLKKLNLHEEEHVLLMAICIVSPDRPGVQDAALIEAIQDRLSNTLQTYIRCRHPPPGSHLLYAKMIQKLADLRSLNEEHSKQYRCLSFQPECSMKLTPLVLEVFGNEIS
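Inhibition of the VDR/SRC2-3 peptide interaction is quantified by fluorescence polarization. Compounds (23 nl, pintool) incubate with the reagents for 2 hours at ambient room temperature.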
Starred values were filed as active, the others as inactive; ? = inconclusive; [ ] = another dose, or the depositor's remark. % is scaled to controls: 0 for no effect and ±100 for the full control effect; potency is read from the fitted curve at half-maximal effect. These rows are one share of the data; the hit share may differ from the screen's.

no.	SMILES	VDR inh
1	COc1ccc(C2CC(c3ccccc3)=NN2C(=O)COC(=O)COc2ccccc2)cc1 (centres undefined)	-2%
2	O=C1Nc2ccccc2S/C1=C/NCc1ccccc1Cl	-13%
3	O=C(CCC(=O)N1CCN(c2ccc(F)cc2)CC1)c1ccc(Cl)cc1	9%
4	O=C(c1ccccc1)C1CN(c2ccccc2)CC1c1ccc(Cl)cc1 (centres undefined)	-20%
5	Cc1ccc2nc(SCc3nnc(-c4ccccc4)o3)[nH]c2c1	-4%
6	Cc1cc(C)cc(-n2ccnc2SCC(=O)Nc2nc3ccccc3s2)c1	-5%
7	CCN(CC)c1ccc(C(=O)NNC(=O)CN2C(=O)NC(C)(c3ccccc3)C2=O)cc1 (centres undefined)	-11%
8	O=C1[C@@H]2[C@@H](CN3CN(c4ccccc4)N=C(c4ccccc4)[C@@]23c2ccccc2)C(=O)N1c1ccccc1	-26%
9	CCC(=O)N1c2ccccc2CC1C(=O)NCc1ccccc1Cl (centres undefined)	5%
10	Cc1nn(-c2ccccc2)c(C)c1NC(=O)CCl	-11%
11	CCOc1ccc(N2CC(NC(=O)Cc3ccccc3)CC2=O)cc1 (centres undefined)	12%
12	Cc1nc(NC(=O)CSc2nc3cccnc3n2Cc2ccccc2)sc1C	-6%

Other structures
no.	SMILES	VDR inh
13	COc1ccc(OCC(=O)NC2CCCCCCC2)cc1	3%
14	Cc1ccc(/C(N)=N/OC(=O)Cc2ccccc2)cc1	-3%
15	Cc1ccccc1N1CCN(S(=O)(=O)Cc2ccccc2)CC1	-8%
16	COC(=O)c1c(NC(=O)COC(=O)c2ccc(NC(=O)CC#N)cc2)sc2c1CCCCC2	7%
17	CCOc1ccc2nc(SCC(=O)N(CC(C)C)c3c(N)n(CC(C)C)c(=O)[nH]c3=O)[nH]c2c1	?
18	CCOc1ccc(CCNC(=O)C2CC(=O)N(Cc3ccc(OC)cc3)C2)cc1OCC (centres undefined)	-7%
19	COc1ccc(CCNS(=O)(=O)c2ccc3c(c2)CCN3C(=O)C2CC2)cc1OC	0%
20	O=C(Nc1nc(-c2ccc(Cl)s2)cs1)c1ccncc1	7%
21	Cc1ccc(NC(=O)COC(=O)Cn2cnc3ccccc32)cc1S(=O)(=O)N(C)C	-18%
22	CSc1ccc(CNC(=O)Cc2csc3ccccc23)cc1	17%
23	CCc1ccc(NC2CC(=O)N(CCc3ccc(OC)c(OC)c3)C2=O)cc1 (centres undefined)	?
24	O=C(C1COc2ccccc2O1)N1CCN(Cc2ccccc2)CC1 (centres undefined)	3%

The list goes on (7 carried over from the part before).
no.	SMILES	VDR inh
18	CCOc1ccc(CCNC(=O)C2CC(=O)N(Cc3ccc(OC)cc3)C2)cc1OCC (centres undefined)	-7%
19	COc1ccc(CCNS(=O)(=O)c2ccc3c(c2)CCN3C(=O)C2CC2)cc1OC	0%
20	O=C(Nc1nc(-c2ccc(Cl)s2)cs1)c1ccncc1	7%
21	Cc1ccc(NC(=O)COC(=O)Cn2cnc3ccccc32)cc1S(=O)(=O)N(C)C	-18%
22	CSc1ccc(CNC(=O)Cc2csc3ccccc23)cc1	17%
23	CCc1ccc(NC2CC(=O)N(CCc3ccc(OC)c(OC)c3)C2=O)cc1 (centres undefined)	?
24	O=C(C1COc2ccccc2O1)N1CCN(Cc2ccccc2)CC1 (centres undefined)	3%
25	CC1CC(OC(=O)C(O)c2ccccc2)CC(C)(C)C1 (centres undefined)	?
26	O=C(CCN1C(=O)C2CCCCC2C1=O)N1CCN(S(=O)(=O)c2ccccc2)CC1 (centres undefined)	-3%
27	O=C(c1cnccn1)N1CCC2(CC1)CCN(c1ccccc1)CC2	1%
28	Cc1ccccc1NC(=O)CSc1nnc(-c2ccoc2C)n1CCc1ccccc1	1%
29	NS(=O)(=O)c1ccc(CCNC(=O)COC(=O)CCN2C(=O)C3CC=CCC3C2=O)cc1 (centres undefined)	1%
30	CCC(=O)c1coc2ccc(O)cc12	-3%
31	CC(C)c1cccc(-c2ccc3c(c2)S(=O)(=O)c2cccc(C(=O)NCc4ccco4)c2C3=O)c1	-18%
32	Cc1cc(NC2CCCCC2)nc(-n2nc(C)cc2C)n1	2%
33	Cc1cccc(OCc2nnc(SCC(=O)Nc3ncc(C)s3)o2)c1	-19%
34	O=C(Cc1ccc(S(=O)(=O)N2CCCCC2)s1)Nc1ccc(F)cc1F	6%
35	Cc1c(C(=O)N(C)CCC#N)oc2ccc(S(=O)(=O)N3CCOCC3)cc12	-9%
36	Cc1cc2c(n1-c1ccc(C(=O)NCc3ccccc3Cl)cc1)CCCC2	14%

Remaining list, next part:
no.	SMILES	VDR inh
37	Cc1ccc(C(=O)C2=C(O)C(=O)N(Cc3ccccc3)C2c2cccnc2)o1 (centres undefined)	-10%
38	Cc1ccc(S(=O)(=O)N2CCN(CC(=O)N/N=C/C=C/c3ccccc3)CC2)cc1	-15%
39	CCCCCC(=O)NNC(=S)NC(=O)c1cccc([N+](=O)[O-])c1	?
40	CCCCn1c(N)c(N(CC(C)C)C(=O)C2CCN(C(=O)c3ccc(F)cc3)CC2)c(=O)[nH]c1=O	-2%
41	Cc1ccc(C)c(NC(=O)C2CCCN(S(=O)(=O)c3c(C)nn(C)c3C)C2)c1 (centres undefined)	27%
42	COC(=O)c1ccc(Nc2nc(C)cc(=O)[nH]2)cc1	8%
43	NNC(=O)c1cc2cc(OC(F)(F)F)ccc2[nH]1	-12%
44	CSc1cccc(CN(C)C(=O)C2CCC(=O)N(CCCN3CCCC3=O)C2)c1 (centres undefined)	7%
45	C=CCn1c(CSc2nc3ccccc3s2)nnc1SCC(=O)OCC	9%
46	CCOC(=O)CNC(=O)CSc1nnc(C)c(=O)[nH]1	-5%
47	O=C(COc1ccc(Br)cc1)Nc1nnc(-c2cccnc2)s1	?
48	Cc1ccc(S(=O)(=O)CC(=O)Nc2nc3ccccc3s2)cc1	17%

New compounds follow.
no.	SMILES	VDR inh
49	Cc1ccc(Nc2nc(N)c([N+](=O)[O-])c(NCCO)n2)cc1	2%
50	COC(=O)C=C1CCC2C3CCC4=CC(=O)C(Br)CC4(C)C3C(=O)CC12C (centres undefined)	2%
51	O=C(Nc1ccc(F)cc1)C1CCN(S(=O)(=O)c2ccc3c(c2)CCCN3C(=O)C2CCC2)CC1	9%
52	Cc1cc(C)cc(NS(=O)(=O)c2ccc(-c3cc(C)no3)cc2)c1	13%
53	Cc1cc(C)nc(NS(=O)(=O)c2ccc(NC(=S)NC(=O)C3CCCC3)cc2)n1	14%
54	Cc1ccccc1NC(=O)NC1CCCCC1C (centres undefined)	4%
55	COC(=O)c1ccc(-c2noc(CN(Cc3nccn3C)C(C)C)n2)cc1	-24%
56	Cc1ccc(Nc2nc(Oc3ccc(OCc4ccccc4)nn3)nc(N3CCOCC3)n2)cc1	1%
57	CCOC(=O)C(=N/O)/C(C)=N/NC(=O)C(=O)Nc1cc(Cl)ccc1Cl	-12%
58	O=C(O)[C@H]1O[C@@H](Oc2ccc3ccc(=O)oc3c2)[C@H](O)[C@@H](O)[C@@H]1O	-1%
59	CCCOc1ccc(CSc2nnc(CCC)n2N)cc1	-1%
60	CCCSCCCNC(=O)C1CCN(c2nn3cc(-c4ccc(F)cc4)nc3s2)CC1	0%

Next part:
no.	SMILES	VDR inh
61	C=C1CCN([C@@H](CC(C)C)C(=O)NCCC(C)C)S(=O)(=O)c2ccccc21	-13%
62	CCC(C)(C)n1nnnc1C(c1ccccc1)N1CCc2ccccc2C1 (centres undefined)	-6%
63	Cc1cc(C)n2nc(CC(=O)NNC(=O)c3ccccc3Cl)nc2n1	19%
64	O=C(O)CC1CCC1CC(=O)O (centres undefined)	-1%
65	CCOC(=O)NC1(C(F)(F)F)NC(=O)N(c2ccc(C)c(C)c2)C1=O (centres undefined)	7%
66	CCCn1nc(C(=O)NCC2COc3ccccc3O2)c2ccccc2c1=O (centres undefined)	-14%
67	Cc1ccc(CC(=O)Nc2ccc(F)c([N+](=O)[O-])c2)cc1	-8%
68	COc1ccc(/C=C(/NC(=O)c2ccc(Br)cc2)C(=O)N2CCOCC2)cc1	-11%
69	O=[N+]([O-])c1ccc(C=NNc2ccccc2)cc1	9%
70	N#C/C(=C\c1cccnc1)C(=O)Nc1cccc(Cl)c1	?
71	COc1ccc(S(=O)(=O)N2CCOCC2)cc1NC(=O)c1ccc(S(=O)(=O)N(C)c2ccccc2OC)cc1	22%
72	C#CCOCCOCCOCCNc1nc(N2CCN(C(=O)CCCCCCCCCCNC(=O)[C@H](CCCCN)n3cc(C)nn3)CC2)nc(N2CCN(C(=O)CCCCCCCCCCNC(=O)[C@H](CO)n3cc(CCCSC)nn3)CC2)n1	39%[activator]

The listing continues.
no.	SMILES	VDR inh
73	c1ccc2cc(CNCc3cccc4ccccc34)ccc2c1	-5%
74	Cc1ccc2c(c1)c1c3n2CCN(CC(O)CNC(C)C)C3CCC1 (centres undefined)	-11%
75	CC1CCN(C(=S)NC2CCCCC2)CC1	-12%
76	C/C(=N\NC(=O)c1ccco1)c1cc2ccccc2o1	7%
77	CC1CC(C)CN(CCCNS(=O)(=O)c2ccc3c(c2)CCN3C(=O)C2CC2)C1 (centres undefined)	-3%
78	COC(=O)c1ccc(CNC(=O)c2ccc(S(=O)(=O)N(C)c3ccccc3OC)cc2)cc1	13%
79	C#CCCCCCCCCCCCc1ccco1	35µM*
80	COc1ccc(Br)cc1C(=O)N/N=C/c1cccnc1	-7%
81	CCCc1cc(=O)oc2cc(OCC(=O)NCc3cccs3)ccc12	-19%
82	CC1(c2ccc(Cl)cc2)NC(=O)N(CC(=O)Nc2ccc(F)cc2)C1=O (centres undefined)	-4%
83	COc1ccc(-c2cc3ccc(O)c(CN4CCCC(C)C4)c3oc2=O)cc1OC (centres undefined)	9%
84	O=C(Nc1c(C(=O)N2CCOCC2)cnn1-c1ccccc1Cl)c1ccco1	0%

(next part)
no.	SMILES	VDR inh
85	COC(=O)c1ccsc1NC(=O)CN1CCN(c2ccc(F)cc2)CC1	10%
86	COc1ccc(CC(=O)OCC(=O)NCc2ccc(C)cc2)cc1OC	5%
87	COc1cccc2cc(C(=O)N3CCC(C)CC3)c(=O)oc12	-17%
88	O=C(CCc1nnc2n(Cc3ccccc3Cl)c(=O)c3ccccc3n12)Nc1ccc(F)cc1	-3%
89	COC(=O)c1ccccc1N(C)C(=O)C12CCC(C)(C(=O)O1)C2(C)C (centres undefined)	-16%
90	CCN1CCN(CC(=O)c2ccc(C)cc2)CC1	2%
91	CCOC(=O)c1c(C)[nH]c(C(=O)COC(=O)COc2ccccc2C=O)c1C	?
92	COc1cccc(NC(=O)Cn2cnc3sc(C)c(S(=O)(=O)N4CCCCC4)c3c2=O)c1	10%
93	COC(=O)C1=C(N)Oc2cc(C)n(CC3CCCO3)c(=O)c2C1c1ccc(Cl)cc1 (centres undefined)	21%
94	COc1ccccc1/C=C/C(=O)OCC(=O)NCc1ccc2c(c1)OCO2	-19%
95	CC1CCN(c2ccc(-c3cccc(NS(=O)(=O)c4ccc(Cl)s4)c3)nn2)CC1	10%
96	CS(=O)(=O)c1ccc2nc(NC(=O)Nc3ccc(Cl)cc3)sc2c1	-1%

Overlap with the part before: 3 entries, then new ones.
no.	SMILES	VDR inh
94	COc1ccccc1/C=C/C(=O)OCC(=O)NCc1ccc2c(c1)OCO2	-19%
95	CC1CCN(c2ccc(-c3cccc(NS(=O)(=O)c4ccc(Cl)s4)c3)nn2)CC1	10%
96	CS(=O)(=O)c1ccc2nc(NC(=O)Nc3ccc(Cl)cc3)sc2c1	-1%
97	COc1ccc(-c2cc(C(F)F)n3ncc(C(=O)Nc4c(C)n(C)n(-c5ccccc5)c4=O)c3n2)cc1	1%
98	CCC(=O)Nc1ccccc1-c1nc2ccccc2n(C(CC)C(=O)Nc2cccc(C(C)=O)c2)c1=O (centres undefined)	4%
99	COC(C[C@H]1O[C@@H]1[C@@H](O)COCc1ccccc1)OC	4%
100	Clc1ccc(CSc2nnc([C@@H]3CCCN3)o2)cc1Cl	1%
101	Cn1ccc2c([N+](=O)[O-])cccc2c1=O	-24%
102	Cc1cc(C(=O)OCC(=O)NC(C)c2ccc(F)cc2)c(C)o1 (centres undefined)	-11%
103	C=CCN(CC=C)c1nc2ccccc2nc1C(C#N)C(=O)OCCOC (centres undefined)	13%
104	CCCn1c(SCc2nc3ccccc3s2)n[nH]c1=O	8%
105	S=c1[nH]c(-c2ccccc2)cn1/N=C/c1cccs1	-3%
106	CCCC12CN3CC(C)(CN(C1)C3c1cn(CC)c3ccccc13)C2=O (centres undefined)	3%
107	CCn1c(CNc2ccc(Cl)cc2)nnc1SCc1ccc(Cl)cc1	1%
108	Cc1ccc(-n2ncc3c(NCCc4ccc(S(N)(=O)=O)cc4)ncnc32)cc1	4%

Remaining list, next part:
no.	SMILES	VDR inh
109	C=CCn1c(N)cc(=O)nc1SCC(=O)NC(C)c1ccccc1 (centres undefined)	8%
110	O=C(O)C1CC=CCC1C(=O)NCCCN1CCCC1=O (centres undefined)	14%
111	COC(=O)CSc1nnc2n(-c3ccc(OC)cc3)c(=O)c3c4c(sc3n12)CCCCC4	3%
112	CCOCCc1nnc(NC(=O)CCS(=O)(=O)c2ccccc2)s1	-6%
113	COc1ccc(N2CCN(C(=O)CN3C(=O)NC4(CCCc5ccccc54)C3=O)CC2)cc1 (centres undefined)	3%
114	COc1ccc(OC)c(C2C(C(C)=O)=C(O)C(=O)N2CCc2ccc(OC)c(OC)c2)c1 (centres undefined)	-5%
115	COc1cccc(CN(C)C(=O)c2cc(COc3ccc4ncccc4c3)on2)c1	-9%
116	O=C(CSc1nc2c([nH]c3ccccc32)c(=O)n1-c1ccccc1)N1CCCC1	8%
117	CCCCc1ccc(C(=O)N/C(=C\c2ccc(C)cc2)C(=O)NC2CCCCC2)cc1	-3%
118	NC(=O)c1ccc(NC(=O)CN2CCN(c3ccc(Cl)cc3)CC2)cc1	-11%
119	COc1cccc2c1C(CCCC(=O)O)CCC2 (centres undefined)	-5%
120	CCOc1ccccc1NC(=O)CCNC(=O)c1ccco1	8%
121	COc1cccc(CNC(=O)CCc2c(C)c3cc4c(C)coc4c(C)c3oc2=O)c1	3%
